# Marburg entry inh – Marburg virus entry inhibition; actives 1.8% (n = 300,000); Potency, µM (top dose mostly 37.8 µM), for inactives: at the highest dose activity change, negative = inhibition, actives largely listed as inhibitors; Marburg virus pseudotyped entry inhibition, cell reporter; control for the full effect not named in the record; about a third of the inactives were read at about 46 µM; AID 540276; active = well fitted inhibition curve with a large enough effect; inconclusive = small, poorly fitted or top-dose-only effect, or effect the other way; inactive = flat fitted curve, though single readings scatter; tested in HEK293 cells; about a fifth of its hits are not listed in these tables; also: % is scaled to controls: 0 for no effect and ±100 for the full control effect; luciferase read-out
# Lassa entry inh – blocks Lassa virus binding to or entry into cells; Lassa virus pseudotype entry inhibition, cell reporter; control for the full effect not named in the record; Potency, µM (top dose mostly 37.9 µM), for inactives: top-dose activity change, negative = inhibition, most hits filed as inhibitors; actives 1.2% (n = 300,000); AID 540256; active means well fitted inhibition curve with a large enough effect; inconclusive means small, poorly fitted or top-dose-only effect, or effect the other way; inactive means flat fitted curve, though single readings scatter; tested in HEK293 cells; also: % is scaled to controls: 0 for no effect and ±100 for the full control effect; nearly all actives have a fitted effect of over 50% in size; luciferase read-out
# NS1 function inh – influenza NS1 inhibition; actives 0.4% (n = 270,000); Potency, µM (doses to about 46.1 µM), without a hit: at the top dose activity, positive = more growth; S. cerevisiae slowed by influenza A NS1, growth recovery by OD600; also: actives are rising curves; nearly all actives have a fitted effect of over 50% in size
#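 Compounds were scored for reversing the slow growth caused by influenza A NS1 in S. cerevisiae, measured by optical density at 600 nm. Assay medium contained 2% galactose at pH 6.0; NS1-free yeast of the same strain were the positive control.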
# SARS PLpro yeast – blocks SARS-CoV papain-like protease in a yeast assay | Potency, µM (titrated, usually from 32.9 µM), inactives show at the top dose activity, positive = growth rescue | S. cerevisiae expressing SARS-CoV PLpro, growth rescue; control for the full effect not named in the record | actives 0.19% (n = 330,000); also: 0% is about no effect; nearly all actives have a fitted effect of over 55% in size; growth read by luminescence after 48 h
# RE007 growth inh – less growth of the S. pombe RE007 Vpr strain; S. pombe RE007 Vpr strain, BacTiter-Glo ATP luminescence, 24 h; control for the full effect not named in the record; Potency, µM (titrated, usually from 92.2 µM), without a hit: at the highest dose activity change, negative = less growth; actives 0.21% (n = 360,000); AID 651644; active = well fitted falling curve with a large enough effect; inconclusive = small, poorly fitted or top-dose-only effect; inactive = no such curve, though single readings can be large or run the other way;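 also: % is scaled to controls: 0 for no effect and ±100 for the full control effect; nearly all actives have a fitted effect of over 50% in size; the assay follows cell death caused by Vpr and the record does not say whether a fall means rescue or toxicity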
#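 Fission yeast RE007 carrying one integrated HIV-1 vpr copy, seeded at OD 0.01 in PMG+AL medium with 23 nL pinned compound. Grown 24 h at 30 degrees; viability read by BacTiter-Glo luminescence after 5 min.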
# 2A StopGo – lowers the luciferase signal of an FMDV 2A StopGo reporter. human cells with a luciferase reporter of 2A StopGo recoding; control for the full effect not named in the record. Potency, µM (titrated, usually from 57.9 µM), for the others: at the top dose signal change, negative = less light. actives 1.2% (n = 410,000); active = well fitted falling curve with a large enough effect; inconclusive = small, poorly fitted or top-dose-only effect; inactive = no such curve, though single readings can be large or run the other way; tested in HEK293T cells; also: % is scaled to controls: 0 for no effect and ±100 for the full control effect; nearly all actives have a fitted effect of over 45% in size; luciferase light after 4 h
# Cruzain noTriton – inhibitors of Trypanosoma cruzi cruzain without detergent. Potency, µM, inactives show max response, negative = inhibition, usual class: inhibitors. AID 1476. actives 2.3% (n = 200,000). P25779. purified cruzain, Z-FR-AMC fluorescence, no detergent; active = well fitted curve in the direction sought with a large enough effect; inconclusive = small, poorly fitted or top-dose-only effect, or another doubt; inactive = no such curve, though single readings can be large; an effect the other way counts as inactive or inconclusive;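 also: plate controls were enzyme without inhibitor for no effect and buffer without enzyme for full effect; nearly all actives have a fitted effect of over 40% in size; top concentration of the series not given in the record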
# Target sequence (P25779 123-467 limits assumed): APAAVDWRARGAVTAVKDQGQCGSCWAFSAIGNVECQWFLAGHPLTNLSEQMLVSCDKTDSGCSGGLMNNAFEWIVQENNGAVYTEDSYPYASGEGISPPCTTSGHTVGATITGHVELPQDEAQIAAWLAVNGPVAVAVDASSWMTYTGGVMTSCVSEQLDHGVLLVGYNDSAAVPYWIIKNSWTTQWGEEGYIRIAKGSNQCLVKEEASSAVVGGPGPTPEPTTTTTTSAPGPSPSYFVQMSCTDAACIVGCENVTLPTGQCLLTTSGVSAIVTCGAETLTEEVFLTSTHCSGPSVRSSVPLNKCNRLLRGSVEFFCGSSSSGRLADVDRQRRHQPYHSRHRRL
#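 Detergent-free condition (0.00005% Triton X-100) in acetate buffer pH 5.5 with DTT. 1.5 nM enzyme and compound were pre-mixed 15 min, then 2 uM Z-FR-AMC substrate added; reaction progress from fluorescence change between first and third reads (60 s).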
# Cruzain Triton – cruzain (T. cruzi) inhibition with detergent | P25779 | purified cruzain, Z-FR-AMC fluorescence, 0.01% Triton | Potency, µM, for the others: max response, negative = inhibition, hits mostly inhibitors | actives 0.43% (n = 200,000) | AID 1478; active = well fitted curve in the direction sought with a large enough effect; inconclusive = small, poorly fitted or top-dose-only effect, or another doubt; inactive = no such curve, though single readings can be large; an effect the other way counts as inactive or inconclusive;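 also: plate controls were neutral wells for no effect and buffer without enzyme for full effect; nearly all actives have a fitted effect of over 40% in size; top concentration of the series not given in the record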
#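 Read-out: AMC fluorescence (360 nm excitation, 450 nm emission), four reads over 2 min, first-to-third difference used. Conditions: cruzain 1.5 nM, Z-FR-AMC 2 uM, pH 5.5 acetate, 5 mM DTT, 0.01% Triton X-100.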
# Numbers without * were called inactive; u = inconclusive; x = not tested or not shown; & = joins results of further samples; [ ] = another dose, or the depositor's remark. Unless noted, calls follow the shape of the dose curve; as a rule, active means well fitted rising curve with a large enough effect; inconclusive means small, poorly fitted or top-dose-only effect; inactive means no such curve, though single readings can be large or run the other way. Potency is read from the fitted curve at half-maximal effect. Compounds as they come. Share with any hit: about 4.6%.
SMILES,Marburg entry inh,Lassa entry inh,NS1 function inh,SARS PLpro yeast,RE007 growth inh,2A StopGo,Cruzain noTriton,Cruzain Triton
CCOC(=O)C1(CCCc2ccccc2)CCN(S(=O)(=O)N(C)C)CC1,u,u,-18%,-11%,0%,-27%,x,x
Cc1c(NC(=O)Nc2c(Cl)cccc2Cl)c(=O)n(-c2ccccc2)n1C,x,x,-8%&8%,0%,-3%,10%,18%,-1.6%
CCOc1ccc(CNC(=O)CN2N=C(c3ccccc3)CCC2=O)cc1OC,x,u,x,x,x,-8%,2%,1.1%
C=CCNc1cc(N2CCCC2)ccc1[N+](=O)[O-],12%[46.1 µM],-7%[46.1 µM],3%,0%,-6%,-2%,x,x
CCOc1cc(/C=N/NC(=O)C(=O)Nc2cc(Cl)ccc2C)ccc1O,10%[46.1 µM],-12%[46.1 µM],x,1%,16%,-14%,x,x
COc1cc2c(cc1OC)C(COc1cccc(C(F)(F)F)c1)N(C(=O)c1ccc(S(=O)(=O)N3CCCC3)cc1)CC2 (stereo not given),x,u,x,x,x,-26%,28%,0.0%
Cc1cc(NC(=O)NN2CCOCC2)nn1-c1c(Cl)cc(Cl)cc1Cl,x,x,0%,0%,10%,-10%,x,x
CCOc1cc2[nH]c(=O)n(CCC(=O)NCCc3ccc(OC)c(OC)c3)c(=O)c2cc1OCC,7%&7%,16%,3%,6%,-1%,0%,12%,-1.6%
O=c1c2ccccc2nc(-c2ccccc2)n1-c1ccccc1,x,x,-10%,0%,10%,-24%,x,x
CC1(C)C2CCC1(CS(=O)(=O)N1CCCc3ccccc31)C(=O)C2 (stereo not given),-9%,0%,-23%,4%,-3%,36%[activator],-5%,2.1%
COc1cc2ncc(C(=O)c3ccccc3)c(N3CCN(Cc4ccccc4)CC3)c2cc1OC,u,-28%,6%,-1%,8%,u,x,x
OC(C#CCN1CCCC1)(c1ccccc1)c1cccnc1 (stereo not given),-3%[46.1 µM],-5%,7%,2%,-5%,5%,x,x
COC(=O)c1ccc(NC(=O)CCN2C(=O)C3C4CCC(C4)C3C2=O)cc1 (stereo not given),11%,0%,-1%,3%,-8%,-1%,x,x
O=C(C1CCN(Cc2ccc(F)cc2)CC1)N(CCc1ccccc1)Cc1ccccc1,u,u,-12%,-10%,11%,u,11%,-2.2%
O=C(CC1C(=O)NCCN1CC1CCCCC1)NCc1ccc(F)cc1 (stereo not given),u,u,2%,1%,-5%,-13%,x,x
O=C(CN(C(=O)c1csnn1)c1cccc(Cl)c1)NC1CCCCC1,-9%[46.1 µM],3%,1%,2%,-9%,-4%,x,x
CC(/C=C/C=C/c1ccccc1)=N/NC(=O)C(O)c1ccccc1 (stereo not given),-10%[46.1 µM],-10%[46.1 µM],-2%,-2%,-29%,7%,x,x
CCOc1ncccc1C(=O)OCC(=O)N(CC(C)C)c1c(N)n(Cc2ccccc2)c(=O)[nH]c1=O,-4%[46.1 µM],4%,x,-2%,2%,-19%,x,x
CS(=O)(=O)N(CC(=O)N1CCCC1)c1cc(C(F)(F)F)ccc1Cl,-5%[46.1 µM],5%,-5%,1%,-1%,-9%,x,x
COC(=O)c1nn(-c2ccccc2)c(Sc2ccc(C)cc2)c1/C=N/O,1%,-7%,-2%,2%,-3%,u,12%,-3.0%
COc1ccc(/C=C(/NC(=O)c2ccc(OC)cc2)C(=O)NCCc2c[nH]c3ccccc23)cc1,u,u,u,1%,8%,-22%,u,-7.3%
ClCCN(CCCl)c1ccc(C=NNc2ncccn2)cc1,u,u,x,x,-2%,16%,x,x
CCN1CCN(c2ccc(NC(=O)c3ccc(Cl)c(N4CCCC4=O)c3)cc2)CC1,16%[46.1 µM],2%[46.1 µM],-3%,-1%,1%,-1%,x,x
Cc1ccc(-c2nc(NC(=O)c3cc(C(C)(C)C)nn3C)sc2C)cc1Cl,u,u,-4%,2%,6%,u,x,x
O=C(N/N=C/c1cccc2ccccc12)c1cccnc1,x,x,-2%,-2%,-7%,35%[activator],x,x
CN(C)c1ncc(C(=O)O)cn1,-1%,25%,3%,-4%,9%,14%,-15%,5.6%
CC(=O)NCCNc1nc2c(-c3ccc(C)cc3)nnn2c2ccccc12,13%[46.1 µM],11%[46.1 µM],x,x,x,-29%,2%,1.2%
COc1ccc2cc(CNc3ccc(C)cc3)c(=O)n(CC(=O)Nc3ccc(C)cc3Cl)c2c1,x,2%[46.1 µM],x,x,x,-11%,-25%,-3.5%
COc1cccc(N2CCN(C(=O)Cn3nc(C)n4c(cc5c(OC)cccc54)c3=O)CC2)c1,u,x,x,x,x,3%,11%,-0.4%
CC(=O)N[C@@H](C)C(=O)N1CCN(S(=O)(=O)c2ccc(Cl)cc2)CC1,8%[46.1 µM],0%,3%,1%,5%,0%,x,x
Nc1nnnn1CC(=O)N/N=C/c1cc([N+](=O)[O-])ccc1Cl,u,-17%,x,1%,-6%,-12%,x,x
COC(=O)c1sccc1NC(=O)c1ccc(OC)c([N+](=O)[O-])c1,-15%,5%,2%,1%,3%,-13%,x,x
CCc1sc(NC(=O)CN2CCOCC2)nc1-c1ccccc1,-1%,-18%,-14%,0%,-15%,x,10%,-0.4%
CC(C)(C)C1CCC(N2CCN(c3ccccc3)CC2)CC1 (stereo not given),x,x,-8%,3%,2%,-14%,x,x
CC(=O)C1CCC2C3CC=C4N(C)C(=O)CCC4(C)C3CCC12C (stereo not given),9%[46.1 µM],-22%[46.1 µM],x,x,9%,-7%,x,x
CCn1c(=O)c(C(=O)Nc2ccccc2)c(O)c2ccccc21,x,x,1%,-3%,-9%,7%,x,x
CC1=CC(=C(C#N)C#N)C=C(C)N1Cc1ccccc1,-5%[46.1 µM],-10%,x,2%,3%,-5%,x,x
COc1cccc(-c2n[nH]c(=S)n2Cc2ccco2)c1,x,x,12%,-1%,14%,-17%,x,x
O=C(NC1CC2CCCC(C1)N2C(=S)NCCc1ccccc1)C1CC1 (stereo not given),x,x,-1%,0%,4%,-17%,x,x
O=C(NCCNC(=O)c1ccc([N+](=O)[O-])cc1)c1ccncc1,-4%[46.1 µM],-2%,x,0%,-4%,0%,x,x
Cc1nn(-c2ccccc2)c(Cl)c1C(=O)N(C)c1nc(-c2ccc(F)cc2)cs1,x,x,1%,-26%,x,x,u,-3.4%
Cc1ccc(C(=O)Nc2ncccc2S(=O)(=O)c2ccccc2)cc1,u,29%[46.1 µM],-5%,-1%,12%,42%[activator],x,x
CC(C)(C)c1cc(NC(=O)Nc2ccc(Br)cc2Cl)no1,u,16%[46.1 µM],8%,-1%,-15%,-3%,x,x
CC1CCN(C(=O)CSc2nc(-c3ccccc3)no2)CC1,x,6%[46.1 µM],x,x,x,42%[activator],5%,-8.1%
CCCC(=O)c1ccc(N2CCOCC2)c(F)c1,u,22%,-2%,-7%,-21%,11%,10%,0.3%
Cc1ccc(CC2CC(=O)N(CC(=O)O)C2=O)cc1 (stereo not given),-12%,7%,3%,17%,-2%,-1%,11%,0.3%
CCOc1ccc(CN2C(=O)c3ccccc3Sc3ccc(C(=O)N4CCC5(CC4)OCCO5)cc32)cc1,u,-21%[46.1 µM],x,x,x,-14%,u,-2.2%
CCn1c(SCC(=O)Nc2ccc(N3CCOCC3)c(Cl)c2)nnc1-c1ccc(N)cc1,3%,19%,14%,-9%,8%,u,1%,4.9%
COc1ccc(OC)c(N/C=C/C(=O)c2ccc(OC)c(OC)c2)c1,11%,u,8%,-10%,-7%,-30%,x,x
NC(=O)C1CCN(C(=O)c2cc(S(=O)(=O)N3CCOCC3)c(Cl)cc2Cl)CC1,16%,-7%,-2%,12%,19%,17%,2%,2.6%
COc1ccc(S(=O)(=O)N2CCOC23CCN(S(=O)(=O)c2ccccc2)CC3)cc1,12%,-16%,x,0%,5%,13%,x,x
O=C(O)CC/C(=N\NC(=O)c1ccc(F)cc1)c1ccc(Br)cc1,u,x,x,-6%,-5%,9%,x,x
Nn1c(SCC(=O)NCc2ccc3c(c2)OCO3)nnc1C1CC1,-4%,-2%,9%,-1%,9%,-15%,-6%,3.0%
Cc1ccc(S(=O)(=O)N2CCC(=O)N(C(COC(=O)Nc3ccccc3)Cc3ccccc3)CC2)cc1 (stereo not given),u,u,19%,5%,-12%,-11%,u,-0.8%&0.5%
Cc1cc(N2CCOCC2)nc(SCc2c(Cl)cccc2Cl)n1,-24%,-21%,-31%,-71%,-15%,-14%,10%,-4.3%
Cc1cccc(C(=O)NCc2nnc(SCC(=O)Nc3ccccc3F)n2-c2ccccc2)c1,u,-17%[46.1 µM],x,x,x,-18%,4%,2.2%
Cn1c(SCC(=O)N2CCOCC2)nc2c(c1=O)SCC2,13%,-8%,-1%,4%,1%,-19%,x,x
Nc1c(S(=O)(=O)c2ccccc2)nnn1-c1ccccc1,14%,-6%,-5%,14%,1%,18%,1%,-1.5%
CC(O)(CS(=O)(=O)Cc1ccc(Cl)cc1)C(=O)Nc1cccc(C(F)(F)F)c1 (stereo not given),-6%,-2%,12%,-4%,-3%,-12%,-11%,3.1%
CCN(Cc1ccccc1)C(=O)CSc1ncn[nH]1,14%[46.1 µM],1%,0%,1%,11%,12%,x,x
# Following part.
SMILES,Marburg entry inh,Lassa entry inh,NS1 function inh,SARS PLpro yeast,RE007 growth inh,2A StopGo,Cruzain noTriton,Cruzain Triton
NC(Cc1ccc(Cl)cc1)C(=O)O (stereo not given),u,0%,-7%,x,x,2%,-8%&-3%,-2.6%&0.4%
Clc1ccc(CSc2nncn2-c2ccc3c(c2)OCCO3)cc1,u,u,-7%,-1%,14%,-19%,x,x
CCOC(=O)c1cccc(NC(=O)CCc2ccccc2)c1,u,u,-33%,-2%,4%,2%,x,x
c1ccc2c(OCCCCN3CCCC3)cccc2c1,x,x,-12%,-4%,1%,-4%,x,x
CCOC(=O)c1c(C)[nH]c(C)c1C=O,14%,1%,x,2%,18%,3%,x,x
Cc1cn(C(C)C)c(=O)n(-c2ccccc2)c1=O,2%[46.1 µM],0%[46.1 µM],x,x,-1%,9%,x,x
N#CC(CC(=O)c1ccc(Cl)cc1)c1ccccc1 (stereo not given),11%,-7%[46.1 µM],x,x,2%,-8%,x,x

# Source: PubChem (National Center for Advancing Translational Sciences (NCATS))
